A1 inh: inhibitors of the anti-apoptotic protein A1, read as caspase activation; MEF A1-2A-BIM cells, Caspase-Glo 3/7 luminescence, 3 h; percent of clofoctol response, vehicle zero; caspase activation, % (test concentration not listed); 0.066% of 330,000 active; AID 2462;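 active means over half of replicate activation scores above 10%, or exactly half above 10 with the replicate mean above 10; inconclusive means replicate mean below 10 yet half the replicates above 10; inactive means over half of replicates below 10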;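 further: wells of about 30 µL received 50 nL stock; many hits fall short of the cut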
UCH37 inh: inhibitors of human deubiquitinating enzyme UCH37. 0.33% of 330,000 active. inhibition, % (test concentration not listed). purified proteasome/UCH37, Ub-AMC cleavage fluorescence. Q9Y5K5;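 active means mean of two replicates above 20%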;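 further: 0% = compound-free wells with enzyme and 100% = wells lacking proteasome; stock transfer was 100 nL into about 20 µL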
Target sequence (Q9Y5K5 whole entry, looked up): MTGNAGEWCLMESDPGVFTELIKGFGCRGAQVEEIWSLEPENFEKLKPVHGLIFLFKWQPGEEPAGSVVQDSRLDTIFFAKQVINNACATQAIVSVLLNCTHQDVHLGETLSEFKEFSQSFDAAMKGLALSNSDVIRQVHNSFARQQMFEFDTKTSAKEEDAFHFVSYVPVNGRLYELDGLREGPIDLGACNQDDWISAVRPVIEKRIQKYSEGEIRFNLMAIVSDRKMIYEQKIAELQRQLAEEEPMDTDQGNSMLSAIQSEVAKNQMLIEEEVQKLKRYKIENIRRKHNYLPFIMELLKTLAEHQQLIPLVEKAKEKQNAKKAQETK
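Test system – human UCH37 enzyme supplied as purified proteasome complex · Incubation – 30 min preincubation with enzyme, 25 min cleavage at room temperature · Detection – AMC fluorescence from Ub-AMC cleavage, excitation 355 nm, emission 460 nm · Benchmarks – no-proteasome wells (full inhibition) and compound-free wells (no inhibition)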
LANA-H2A inh: blocks KSHV LANA binding to histone H2A/H2B; Q9QR71; inhibition, % (concentration not given with the values); 0.6% of 320,000 active; cell-free LANA-H2A/H2B peptide, fluorescence polarization; in the data active means inhibition mostly above about 10%, no sharp cut-off; inactive means mostly below about 6.7%;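 further: stock transfer was 7.5 nL into about 10 µL; 0% = median of vehicle wells and 100% = median of positive control wells; one replicate is shown; the record names a cut of 25% in any replicate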
T cruzi inh: T. cruzi replication inhibition; T. cruzi beta-gal in NIH3T3, luminescence, 90 h; inhibition, % (test concentration not listed); 1.4% of 300,000 active; AID 1885;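 active means mean inhibition across valid replicates above about 55%, limit read from the data; inconclusive means mean below that limit but half or more replicates reach it; inactive means mean below it, under half of replicates reach it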;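 further: signal also drops with host cell toxicity which is not excluded here; 0% = plate median of DMSO wells and 100% = zero luminescence signal; higher percent means less beta-gal luminescence so fewer parasites; stock transfer was 50 nL into about 50 µL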
Beta cell apopt: blocks beta cell apoptosis; INS-1E cytokine-induced death, ATP luminescence, 48 h; percent of positive-control rescue, neutral wells zero; protection from apoptosis, % (concentration not given with the values); 0.8% of 300,000 active; AID 435005;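 active means all replicates at 75% or more, or half of them and the mean; inconclusive means half reach 75% but not the mean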;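 further: 0% = cytokine-treated negative control wells and 100% = positive control rescue; higher means more ATP so stronger rescue from cytokine killing; wells of about 40 µL received 100 nL stock; the first replicate is given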
RanGTP-Imp inh: disruptors of Ran-importin-beta complex formation – biochemical, FRET, CFP-Ran, YFP-importin-beta, homogeneous, primary screen | cell-free CFP-Ran/YFP-importin-beta FRET ratio | inhibition, % (no concentration beside the values) | 1.1% of 300,000 active;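 active means most replicates above 15%; inconclusive means exactly half above 15%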;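 further: 0% = DMSO wells and 100% = Ran loaded with GDP instead of GTP; wells of about 40 µL received 100 nL stock; the first replicate is given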
Beta2AR agonist: agonists of human beta-2 adrenergic receptor inducing internalization; P07550; Am2.2-beta2AR cells, FAP receptor internalization, flow cytometry; reference of the scale not given here; response, % (concentration not given with the values); 0.43% of 340,000 active;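 active means response above a set limit, near 3 SD of response in nonfluorescent compounds, cut at about 42% in these data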;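 further: stock transfer was 100 nL into about 11 µL; a reference agonist was the positive control; negative values mostly stem from fluorescent compounds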
Target sequence (P07550 whole entry, looked up): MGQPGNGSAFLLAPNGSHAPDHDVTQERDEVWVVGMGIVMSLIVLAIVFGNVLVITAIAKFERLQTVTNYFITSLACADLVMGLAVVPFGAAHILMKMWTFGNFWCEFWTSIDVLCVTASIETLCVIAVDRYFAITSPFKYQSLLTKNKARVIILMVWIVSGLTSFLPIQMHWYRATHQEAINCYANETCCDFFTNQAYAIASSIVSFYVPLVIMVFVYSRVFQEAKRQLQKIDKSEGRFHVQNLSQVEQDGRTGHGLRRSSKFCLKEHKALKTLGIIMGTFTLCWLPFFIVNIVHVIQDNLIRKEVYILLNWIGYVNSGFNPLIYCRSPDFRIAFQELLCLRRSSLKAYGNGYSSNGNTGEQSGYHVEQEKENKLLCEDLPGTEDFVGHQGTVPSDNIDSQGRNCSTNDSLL
Calb FLC: C. albicans growth modulation with fluconazole | C. albicans CaCi-2 (fluconazole-resistant clinical isolate) + fluconazole, Alamar Blue growth, 48 h | growth inhibition, % (test concentration not listed) | 0.57% of 300,000 active;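 active means most replicates above 75%; inconclusive means exactly half above 75%; inactive means most below 75%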;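 further: all wells also contain fluconazole at 8 µg/ml as a sub-toxic cotreatment; 0% = median of DMSO wells and 100% = median of geldanamycin control wells; wells of about 8 µL received 7.5 nL stock; the first replicate is given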
Active calls of the source: *; ? = inconclusive; . = no result given.

SMILES	A1 inh	UCH37 inh	LANA-H2A inh	T cruzi inh	Beta cell apopt	RanGTP-Imp inh	Beta2AR agonist	Calb FLC
Cc1nn(C)c(C)c1S(=O)(=O)N1CCC(C(=O)NCCC2=CCCCC2)CC1	0.4	2.7	2.0	12	5	-1.4	0	-17
COc1ccc(N2C(=O)CS/C2=N\C(=S)Nc2ccccc2)cc1	0.4	.	2.3	14	-5	-2.5	0	-4
COc1cc(SC)ccc1C(=O)Nc1cccc(C)n1	-5.9	2.3	5.2	-10	-1	0.4	-7	-2
COc1ccc(-c2nn(-c3ccccc3)cc2/C=N/n2cnnc2)cc1OC	-0.7	.	0.9	-9	-3	-1.1	-6	17
CCOc1ccc(-c2csc(N)c2C(=O)OC)cc1	0.0	-1.2	1.0	-7	-4	0.2	-8	3
COc1ccc(CNC(=O)C2CCN(S(=O)(=O)c3ccc4c(c3)CC(C)N4C(=O)C3CC3)CC2)cc1 (configuration not stated)	0.7	3.0	9.4	-16	-1	-1.3	1	-3
O/N=C/c1cn(-c2ccccc2)nc1-c1ccc2c(c1)OCCO2	-0.4	.	-1.2	13	-8	-0.7	5	5
CCCCC(=O)NCCc1ccc(OC)cc1	0.3	0.9	-0.4	-5	-2	1.3	8	0
COc1cc(C#N)ccc1OCC(=O)N1CCc2ccccc2C1	0.2	1.1	-2.5	-7	4	-6.0	3	-7
CCOC(=O)c1c(C)[nH]c(C(=O)COC(=O)CN2C(=O)C3CCCCC3C2=O)c1C (configuration not stated)	0.2	1.1	1.7	1	-4	-3.9	-10	28
C/C(=N\NC(=O)c1cc(C(C)C)[nH]n1)c1ccco1	-6.8	.	-1.5	-16	-2	-1.4	-5	14
O=C(COC(=O)CC1c2ccccc2CCN1S(=O)(=O)c1ccc(F)cc1)Nc1ccccc1 (configuration not stated)	-0.3	5.5	0.8	-15	-1	0.6	-5	31
COc1ccc2c(c1OC)C(=O)N(c1cccc(/C=C/C(=O)O)c1)C2	-3.6	-3.5	4.2	-9	10	-0.2	5	-1
CCc1nnc(NC(=O)c2ccc3c(=O)n4c(nc3c2)CCCCC4)s1	-0.8	6.6	2.4	2	-4	6.4	-2	3
Cc1ccccc1-c1nc(S(=O)(=O)c2ccccc2)c(N2CCCC2)o1	-1.1	-2.1	-4.1	.	3	.	-2	.
CC(C)(C)NS(=O)(=O)c1ccc(CCC(=O)N2CCOCC2)cc1	1.1	1.0	0.4	-10	2	35*	-2	7
CCOC(=O)CSC1=C(C#N)C(C)C2=C(CCCC2=O)N1 (configuration not stated)	-0.4	.	4.2	-16	-15	3.4	-10	-2
CCCc1nc2sc3c(c2c(=O)n1NC(=O)CCC(=O)O)CCCC3	-0.2	5.5	1.6	-13	-14	-1.6	-4	-1
CCN1CCN(S(=O)(=O)c2ccc(Cl)c(C(=O)N(C)Cc3ccc(F)cc3)c2)CC1	-0.5	1.4	1.2	-9	-2	-0.5	-5	6
Cc1noc(C)c1CSCC(=O)N(C)CC(=O)Nc1ccc(Cl)cc1	0.8	1.4	-1.2	-1	-3	-6.0	-8	3
CCc1ccc(NC(=O)CSc2ccccn2)cc1	-0.7	-0.2	3.6	14	2	2.0	2	-27
COc1ccc2[nH]c3c(NCc4ccco4)ncnc3c2c1	-1.7	-73	0.3	5	0	-4.1	.	11
Cc1ccc(OCc2cc(C(=O)N(C)CCc3ccccc3)no2)cc1C	-0.6	0.9	-3.8	4	0	0.4	1	4
CC(C)(C)Nc1c([N+](=O)[O-])c(=O)sc2ccccc12	1.0	7.5	-2.8	9	.	0.2	-1	10
CCOC(=O)CS(=O)(=O)c1ccc(C(F)(F)F)cn1	-0.3	6.2	0.0	-9	3	-2.1	-4	30
COc1cc(OC)cc(C(=O)NC(=S)Nc2nnn(C)n2)c1	-0.4	1.0	-5.3	-15	-2	0.5	-2	5
Cc1c(S(=O)(=O)N2CCc3ccccc3C2)c(=O)n(C)c(=O)n1C	0.0	6.5	4.1	-6	-1	-1.4	9	10
N#Cc1ccccc1NC(=O)CSc1nnc(-c2ccc(F)cc2)n1-c1ccccc1	.	1.5	.	14	.	-1.4	7	-8
Cc1cc(C(=O)NNC(=S)NC(=O)/C=C/c2ccccc2Cl)n[nH]1	1.2	6.2	-1.9	-2	8	-0.5	0	?
CCCCC(=O)Nc1ccc2oc(-c3ccncc3)nc2c1	-1.1	-46	-1.1	19	4	2.4	-4	20
CCc1ccc(C2NC(=S)NC3=C2C(=O)CC(C)(C)C3)cc1 (configuration not stated)	-0.1	-7.2	-2.9	-7	-11	?	-19	3
CC(C)c1ccc(NC(=O)C(c2ccccc2)N(C)C(=O)CCc2c[nH]c3ccccc23)cc1 (configuration not stated)	-1.2	.	3.1	41	1	-3.3	12	16
O=C1Cc2ccccc2C(c2ccc(Br)cc2)N1 (configuration not stated)	0.5	0.9	0.6	1	3	-1.9	2	-7
COc1cccc(CN(C)C(=O)c2cc(S(=O)(=O)NCc3ccccc3)ccc2C)c1OC	-0.2	4.7	-2.7	-8	3	0.0	5	9
CCC(=O)Nc1ccc2c(c1)N(C(C)=O)c1ccccc1CC2	-0.5	1.7	1.8	5	-3	-4.1	3	5
Cn1ncc2c(NCc3ccccc3)ncnc21	-0.2	0.6	-0.7	-2	1	-0.6	8	-2
CC(C)CCNC(=O)C(=O)Nc1cc2c3c(c1)CC(=O)N3CCC2	-0.4	2.9	0.7	-5	-1	?	4	2
Cc1cc(C(=O)NCC(=O)O)c(C)o1	-0.5	-0.4	2.2	0	-6	2.7	3	0
Cc1cc(C)c(S(=O)(=O)N2CCCc3ccccc32)c(C)c1	2.5	1.1	-0.3	26	-7	-0.7	0	-4
Nn1cc(-c2ccccc2)nc1SCC(=O)Nc1ccc2c(c1)OCO2	-0.5	1.4	-3.3	8	.	4.9	-5	-3

Results in RanGTP-Imp inh and Calb FLC, for some of the entries so far:
Molecule,RanGTP-Imp inh,Calb FLC
CCc1ccc(NC(=O)CSc2ccccn2)cc1,2.0,-27
COc1ccc2[nH]c3c(NCc4ccco4)ncnc3c2c1,-4.1,11
Cc1ccc(OCc2cc(C(=O)N(C)CCc3ccccc3)no2)cc1C,0.4,4
CC(C)(C)Nc1c([N+](=O)[O-])c(=O)sc2ccccc12,0.2,10
CCOC(=O)CS(=O)(=O)c1ccc(C(F)(F)F)cn1,-2.1,30

Whole records, looked up by structure. Screens in order: A1 inh	UCH37 inh	LANA-H2A inh	T cruzi inh	Beta cell apopt	RanGTP-Imp inh	Beta2AR agonist	Calb FLC
Entry for CCc1ccc(NC(=O)CSc2ccccn2)cc1 : -0.7	-0.2	3.6	14	2	2.0	2	-27
Entry for COc1ccc(-c2nn(-c3ccccc3)cc2/C=N/n2cnnc2)cc1OC : -0.7	.	0.9	-9	-3	-1.1	-6	17
Entry for O/N=C/c1cn(-c2ccccc2)nc1-c1ccc2c(c1)OCCO2 : -0.4	.	-1.2	13	-8	-0.7	5	5

(further entries)
SMILES	A1 inh	UCH37 inh	LANA-H2A inh	T cruzi inh	Beta cell apopt	RanGTP-Imp inh	Beta2AR agonist	Calb FLC
COCCn1nnnc1C(CC(C)C)N1CCN(c2cccc(OC)c2)CC1 (configuration not stated)	.	0.6	.	36	.	-0.8	2	5
O=S(=O)(NC1CC1)c1ccc(S(=O)(=O)N2CCCC3(CCCCC3)C2)cc1	-0.1	2.1	-1.2	13	6	?	10	-6
Cc1cc(C)nc(SCc2ccc(C(=O)NN=C3CCCC3)cc2)n1	-1.0	0.1	1.4	11	-2	1.0	-11	-19
O=C(Nc1ccc(Br)cc1)C1CCN(C(=O)c2ccc(F)cc2)CC1	-0.6	2.6	3.1	39	-2	1.6	3	-12
CS(=O)(=O)N(CC(=O)NCc1ccc2c(c1)OCO2)C1CCCCC1	-0.3	0.5	-3.1	9	-3	4.0	-2	15
COCCn1c(-c2ccc(-c3ccccc3Cl)o2)nc2c1c(=O)[nH]c(=O)n2CC(C)C	0.1	-38	4.6	2	6	-2.7	5	-1
COc1ccc(C2=C(Nc3ccc(F)cc3)c3ccccc3C2=O)cc1	0.3	5.1	1.7	.	11	-2.2	0	2
CC(C)[C@@H](NC(=O)C1CCC(CNC(=O)[C@H](Cc2ccccc2)NC(=O)OC(C)(C)C)CC1)C(=O)O (some centres not stated)	0.7	1.1	-2.1	-10	-3	6.0	-12	-3
CC(C)(C)n1cnnc1Sc1ncccc1[N+](=O)[O-]	-0.8	6.8	2.1	-13	-9	2.3	-3	-6
COc1ccc2c(c1)[nH]c1c(=O)n(CCN(C)C)cnc12	0.5	0.2	0.9	2	-9	-2.2	-7	-1
COc1cc(/C=N/NC(=O)CCc2n[nH]c(=O)[nH]c2=O)ccc1O	-0.3	.	0.9	-5	0	-2.1	-2	-6
CC(=O)Nc1ccc(OCC(=O)N2CCc3ccccc3C2)cc1	0.2	2.5	1.7	5	0	?	-4	-11
CCOc1ccccc1-n1c(=S)sc2c(=O)n(-c3ccc(C)cc3)c(=S)[nH]c21	-1.4	15	-4.3	15	-6	-4.5	1	-1
O=C(Nc1ccccc1-c1ccccc1)c1ccc(NC(=O)c2ccco2)cc1	-0.6	0.5	3.7	-7	5	2.4	3	-5
O=[N+]([O-])c1cnccc1Nc1ccc(F)cc1	2.4	3.4	-2.9	-8	-6	-1.3	-3	-2
CCOc1ccc(OCCC(=O)OCC(=O)Nc2ccc3c(c2)OCO3)cc1	-0.2	2.8	-6.8	0	-1	-2.0	11	-2
Cc1ccc(NC(=O)Cn2nc(C)c([N+](=O)[O-])c2C)cc1Cl	.	3.4	.	17	.	?	2	-27
CCOc1ccccc1/C=C/c1onc(C)c1S(=O)(=O)N1CCC(C(=O)N(CC)CC)CC1	0.4	-25	-5.3	8	5	?	-10	15
Cc1ccc([N+](=O)[O-])cc1N(CC(=O)N1CCCCC1)S(C)(=O)=O	0.2	5.3	-2.8	5	1	.	12	5
Cc1ccc(NC(=O)Nc2nc3ccccc3s2)cc1NC(=O)Nc1nc2ccccc2s1	2.4	1.5	1.9	15	30	?	14	.
CC(=O)Nc1ccc(C(=O)Nc2ccc(S(=O)(=O)N3CCCC3)cc2)cc1	-1.6	4.5	-2.8	16	-3	-1.7	0	.
COc1ccc(CC(NC(=O)c2ccccc2)C(=O)NCC(=O)O)cc1 (configuration not stated)	0.1	1.7	4.2	-15	-9	8.9	7	7
O=C(Nc1ncc2c(n1)-c1ccccc1CC2)c1ccc(Cl)cc1	-1.3	-49	5.3	10	-4	1.4	-3	2
O=C(/C=C/c1ccccc1Cl)Nn1cnc2ccccc2c1=O	0.7	1.0	6.7	4	0	3.9	3	-15
C/C(=C/c1ccccc1)C(=O)N1CCC(C)CC1	-0.4	4.6	0.6	9	0	-2.4	4	10
O=C(CC(Nc1cccc(Cl)c1Cl)C(=O)O)c1ccccc1 (configuration not stated)	0.2	-1.0	0.2	-10	-2	0.7	-1	-1

Records above shown as hits in RanGTP-Imp inh.
SMILES	UCH37 inh	LANA-H2A inh	RanGTP-Imp inh	Beta2AR agonist
CC(C)(C)NS(=O)(=O)c1ccc(CCC(=O)N2CCOCC2)cc1	1.0	0.4	35*	-2

Screening results (PubChem BioAssay)
